High-throughput results: PubChem, National Center for Advancing Translational Sciences (NCATS)
Marburg entry inh: inhibitors of Marburg virus binding or cell entry; Marburg virus pseudotyped entry inhibition, cell reporter; control for the full effect not named in the record; about a third of the inactives were read at about 46 µM; Potency, µM (titrated, usually from 37.8 µM), inactives show at the top dose activity change, negative = inhibition, usual class: inhibitors; 300,000 tested, 1.8% active; active = well fitted inhibition curve with a large enough effect; inconclusive = small, poorly fitted or top-dose-only effect, or effect the other way; inactive = flat fitted curve, though single readings scatter; tested in HEK293 cells; about a fifth of its hits are not listed in these tables; further: on the % scale 0 is the no-effect control and ±100 the full control effect; luciferase read-out
2A StopGo: FMDV 2A StopGo reporter, luciferase signal. human cells with a luciferase reporter of 2A StopGo recoding; control for the full effect not named in the record. Potency, µM (top dose mostly 57.9 µM), for the others: top-dose signal change, negative = less light. 410,000 tested, 1.2% active; active = well fitted falling curve with a large enough effect; inconclusive = small, poorly fitted or top-dose-only effect; inactive = no such curve, though single readings can be large or run the other way; tested in HEK293T cells; further: on the % scale 0 is the no-effect control and ±100 the full control effect; nearly all actives have a fitted effect of over 45% in size; luciferase light after 4 h
LASV entry inh: inhibitors of Lassa virus binding or cell entry; Lassa virus pseudotype entry inhibition, cell reporter; control for the full effect not named in the record; 300,000 tested, 1.2% active; Potency, µM (top dose mostly 37.9 µM), for inactives: at the top dose activity change, negative = inhibition, actives largely listed as inhibitors; active means well fitted inhibition curve with a large enough effect; inconclusive means small, poorly fitted or top-dose-only effect, or effect the other way; inactive means flat fitted curve, though single readings scatter; tested in HEK293 cells; further: on the % scale 0 is the no-effect control and ±100 the full control effect; nearly all actives have a fitted effect of over 50% in size; luciferase read-out
Cruzain Triton: blocks cruzain activity in presence of Triton detergent; P25779; purified cruzain, Z-FR-AMC fluorescence, 0.01% Triton; Potency, µM, for inactives: max response, negative = inhibition, actives largely listed as inhibitors; 200,000 tested, 0.43% active; AID 1478; active means well fitted curve in the direction sought with a large enough effect; inconclusive means small, poorly fitted or top-dose-only effect, or another doubt; inactive means no such curve, though single readings can be large; an effect the other way counts as inactive or inconclusive;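 further: plate controls were neutral wells for no effect and buffer without enzyme for full effect; nearly all actives have a fitted effect of over 40% in size; top concentration of the series not given in the record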
Target sequence (P25779 123-467 limits assumed): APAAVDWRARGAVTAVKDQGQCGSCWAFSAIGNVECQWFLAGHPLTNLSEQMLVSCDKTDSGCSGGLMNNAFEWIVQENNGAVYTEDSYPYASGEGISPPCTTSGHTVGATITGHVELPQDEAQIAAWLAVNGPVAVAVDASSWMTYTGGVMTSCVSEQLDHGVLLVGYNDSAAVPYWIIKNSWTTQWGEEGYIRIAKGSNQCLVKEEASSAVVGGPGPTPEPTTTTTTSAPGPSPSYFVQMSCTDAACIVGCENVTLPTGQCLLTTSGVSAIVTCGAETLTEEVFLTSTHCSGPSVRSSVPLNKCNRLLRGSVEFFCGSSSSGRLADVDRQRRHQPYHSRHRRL
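Sodium acetate buffer (100 mM, pH 5.5) containing 5 mM DTT and 0.01% Triton X-100 hosted 1.5 nM cruzain and test compound for 15 min at room temperature. Cleavage of 2 uM Z-FR-AMC was then tracked by fluorescence.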
SARS PLpro yeast: inhibitors of SARS-CoV papain-like protease in yeast. S. cerevisiae expressing SARS-CoV PLpro, growth rescue; control for the full effect not named in the record. Potency, µM (highest dose often 32.9 µM), inactives show at the top dose activity, positive = growth rescue. 330,000 tested, 0.19% active; further: 0% is about no effect; nearly all actives have a fitted effect of over 55% in size; growth read by luminescence after 48 h
RE007 growth inh: less growth of the S. pombe RE007 Vpr strain. AID 651644. 360,000 tested, 0.21% active. S. pombe RE007 Vpr strain, BacTiter-Glo ATP luminescence, 24 h; control for the full effect not named in the record. Potency, µM (titrated, usually from 92.2 µM), for inactives: top-dose activity change, negative = less growth; active = well fitted falling curve with a large enough effect; inconclusive = small, poorly fitted or top-dose-only effect; inactive = no such curve, though single readings can be large or run the other way;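 further: on the % scale 0 is the no-effect control and ±100 the full control effect; nearly all actives have a fitted effect of over 50% in size; the assay follows cell death caused by Vpr and the record does not say whether a fall means rescue or toxicity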
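Fission yeast strain RE007, carrying one chromosomally integrated HIV-1 vpr copy, was seeded at OD 0.01 in PMG+AL medium with 23 nL pinned compound. After 24 h at 30 °C and 99% humidity, viability was read by BacTiter-Glo luminescence.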
NS1 inh: influenza NS1 inhibition; AID 2326; 270,000 tested, 0.4% active; Potency, µM (doses to about 46.1 µM), inactives show at the highest dose activity, positive = more growth; S. cerevisiae slowed by influenza A NS1, growth recovery by OD600; further: actives are rising curves; nearly all actives have a fitted effect of over 50% in size
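Read-out: OD600 growth recovery of NS1-expressing budding yeast. Cells grown overnight at 30C in -URA glucose medium, washed, resuspended and diluted 1:100 in 2% galactose assay medium, pH 6.0. Same strain lacking NS1 served as positive control.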
Cruzain inh noDet: inhibitors of Trypanosoma cruzi cruzain without detergent. P25779. purified cruzain, Z-FR-AMC fluorescence, no detergent. Potency, µM, for the others: max response, negative = inhibition, actives largely listed as inhibitors. 200,000 tested, 2.3% active; active means well fitted curve in the direction sought with a large enough effect; inconclusive means small, poorly fitted or top-dose-only effect, or another doubt; inactive means no such curve, though single readings can be large; an effect the other way counts as inactive or inconclusive;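 further: plate controls were enzyme without inhibitor for no effect and buffer without enzyme for full effect; nearly all actives have a fitted effect of over 40% in size; top concentration of the series not given in the record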
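Purified cruzain at 1.5 nM, pre-incubated 15 min with compound at room temperature in 100 mM sodium acetate pH 5.5, 5 mM DTT, 0.00005% Triton X-100. Reaction started with 2 uM Z-FR-AMC; AMC fluorescence increase over 60 s gives rate.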
Starred values were filed as active, the others as inactive; u = inconclusive; x = not tested or not shown; & = joins results of further samples; [ ] = dose if it differs, or a comment. Unless noted, the call rests on the fitted dose curve; in most records, active means well fitted rising curve with a large enough effect; inconclusive means small, poorly fitted or top-dose-only effect; inactive means no such curve, though single readings can be large or run the other way. Potency means the concentration at half of the fitted maximal effect.

SMILES	Marburg entry inh	2A StopGo	LASV entry inh	Cruzain Triton	SARS PLpro yeast	RE007 growth inh	NS1 inh	Cruzain inh noDet
O=C(Nc1cccc(Cl)c1)C1CCCN(c2cnccn2)C1 (configuration not stated)	x	-14%	x	x	0%	-5%	-6%	x
COCCOC(=O)C1=C(C)Nc2cc(=O)[nH]c(=O)n2C1c1cccc([N+](=O)[O-])c1 (configuration not stated)	u	-5%	-1%	-6.7%	3%	-6%	-12%	-22%
CCCNc1nc2c(c(=O)n(C)c(=O)n2C)n1Cc1ccc(F)cc1	x	u	x	-6.0%	1%	-8%	-24%	4%
CCCCS(=O)(=O)CC(O)CSc1nc(-c2ccc(C)cc2)cc(-c2ccccc2)c1C#N (configuration not stated)	x	-8%	u	-2.1%	x	x	x	-23%
CCO[C@H]1OC(C(=O)N2CCN(Cc3ccc4c(c3)OCO4)CC2)=C[C@@H](C(C)(C)C)[C@@H]1CCCO	x	u	x	x	-2%	-25%	-4%	x
COc1ccc(S(=O)(=O)N2CCN(CCc3ccccc3)CC2)c(OC)c1	u	u	u	x	5%	-20%	9%	x
S=c1nccc(-c2cc(Cl)sc2Cl)[nH]1	u	-25%	13%	-3.3%	-14%	-18%	9%	13µM*
O=C(/C=C/c1ccccc1)N1CCN(S(=O)(=O)c2ccc(F)cc2)CC1	u	-19%	5%	x	0%	11%	x	x
Cc1occc1C(=O)N/N=C/c1cccc2ccccc12	u	26%	x	x	-7%	-8%	-31%	x
Cc1noc2ncnc(Oc3ccc4ccccc4c3)c12	-5%	-28%	-3%	-5.0%	u	-3%	-9%	-6%
COc1ccc(C2CC(c3ccc(OC)c(OC)c3)=NN2C(=O)c2ccccc2)cc1 (configuration not stated)	x	0%	x	x	-5%	-4%	0%	x
O=C1/C(=C/c2cccc(F)c2)Oc2cc(O)ccc21	u	10%	u	x	-12%	-25%	-88%	x
CCOC(=O)NC(=O)c1cn(Nc2ncc(Cl)cc2C(F)(F)F)c(=O)[nH]c1=O	1%	-10%	-26%	x	1%	-11%	0%	x
CC1(CCc2ccccc2)NC(=O)N(CC(=O)Nc2ccccc2C#N)C1=O (configuration not stated)	15%	-5%	11%	x	0%	-9%	x	x
Cc1ccc(OCC(=O)NCCCNC(=O)c2ccncc2)cc1	17%	-4%	3%	x	6%	1%	2%	x
O=C(CSc1cccc[n+]1[O-])c1cccs1	7%[46.1 µM]	-4%	u	x	0%	-18%	x	x
CCC(Cc1ccccc1)NC(=O)CN(C)S(=O)(=O)c1ccc2c(c1)c(=O)n(C)c(=O)n2C (configuration not stated)	5%	-25%	x	-1.2%	-5%	1%	3%	u
O=S(=O)(c1ccc(F)cc1)N1CCCC1	-9%	-19%	1%	x	2%	7%	16%	x
Cc1nn(-c2ccccc2)c(Cl)c1C(=O)NCc1ccccc1F	-17%[46.1 µM]	4%	-19%	x	-3%	2%	-17%	x
Cc1c(C(=O)NCc2ccc3c(c2)OCO3)oc2ccc(S(=O)(=O)N3CCCC3)cc12	13%&13%[46.1 µM]	u	-5%	-0.9%	-4%	24%	-39%	16µM*
COC(=O)c1ccc(OCC(O)CN(CCO)CCO)cc1 (configuration not stated)	5%	-9%	14%	6.4%	4%	-7%	9%	-6%
O=C(Nc1ccc([N+](=O)[O-])cc1)c1cc(Cl)sc1Cl	x	13%	x	x	-3%	-16%	-7%	x
Cc1noc(C)c1CSc1ccccc1C(=O)N(C)CC(=O)Nc1cccc(F)c1	-7%[46.1 µM]	-4%	u	x	3%	-10%	x	x
Cc1nc2c(c(C)nn2-c2ccccc2)c(C)c1Cl	-1%	-21%	2%	-6.3%	5%	-9%	-21%	-6%
O=[N+]([O-])c1ccc(N2CCCC2)cc1N1CCCC1	u	9%	u	-14%	-9%	u	-20%	-18%
CCCCOc1ccccc1NC(=O)c1ccc(=O)[nH]c1	5%	-3%	-11%	1.7%	-3%	-1%	u	10%
Cc1cc(C)nc(N2CCC(C(=O)Nc3ccc(Oc4ccccc4)cc3)CC2)n1	1%&-12%	7%	1%	-0.9%	2%	17%	-13%	u
CC(C)C/C=C1\CCc2c([nH]c3ccccc23)C1=O	11%[46.1 µM]	22%	0%[46.1 µM]	x	-2%	-13%	-4%	x
OC[C@H]1O[C@@H]2O[C@H]3[C@H](O)[C@@H](O)[C@@H](O[C@H]4[C@H](O)[C@@H](O)[C@@H](O[C@H]5[C@H](O)[C@@H](O)[C@@H](O[C@H]6[C@H](O)[C@@H](O)[C@@H](O[C@H]7[C@H](O)[C@@H](O)[C@@H](O[C@H]1[C@H](O)[C@H]2O)O[C@@H]7CO)O[C@@H]6CO)O[C@@H]5CO)O[C@@H]4CO)O[C@@H]3CO	x	-8%	x	4.4%	-9%	4%	4%	0%
COc1ccc(CNC(=O)CCS(=O)(=O)c2ccc3c(c2)CC(C)N3C(=O)C2CC2)cc1 (configuration not stated)	x	-21%&-2%	u	-1.6%	0%	6%	3%	4%

Fetched one by one from above (3):
SMILES	Marburg entry inh	2A StopGo	LASV entry inh	Cruzain Triton	SARS PLpro yeast	RE007 growth inh	NS1 inh	Cruzain inh noDet
O=C1/C(=C/c2cccc(F)c2)Oc2cc(O)ccc21	u	10%	u	x	-12%	-25%	-88%	x
O=C(CSc1cccc[n+]1[O-])c1cccs1	7%[46.1 µM]	-4%	u	x	0%	-18%	x	x
O=S(=O)(c1ccc(F)cc1)N1CCCC1	-9%	-19%	1%	x	2%	7%	16%	x

The list continues.
SMILES	Marburg entry inh	2A StopGo	LASV entry inh	Cruzain Triton	SARS PLpro yeast	RE007 growth inh	NS1 inh	Cruzain inh noDet
CCOC(=O)C1C(=O)C=C(c2cccc(NS(C)(=O)=O)c2)CC1c1ccco1 (configuration not stated)	2%	-18%	-2%	-15%	13%	1%	-11%	-9%
CN(C)CCN1C(=O)C2C3C=CC(C3)C2C1=O (configuration not stated)	x	-5%	x	x	-1%	-6%	4%	x
C=CCn1c(COc2ccc(CC)cc2)nnc1SCC(=O)N(C)C1CCS(=O)(=O)C1 (configuration not stated)	1%&7%	-5%	2%	-5.0%	1%	16%	3%	u
Cc1[nH]c2ccccc2c1C(=O)CSc1nc2ncc(Cl)cc2[nH]1	-10%	-15%	u	x	-2%	-13%	x	x
Cc1nnc2ccc(-c3cccc(NS(=O)(=O)c4cc(F)ccc4F)c3)nn12	u	4%	u	x	-1%	1%	x	x
COc1ccc(Oc2ncnc3c2oc2ccc(Br)cc23)cc1	-27%[46.1 µM]	0%	15%	8.9%	-2%	1%	-9%	-18%
COC(=O)C1(C)CCC(C(=O)Nc2ccccc2)C1(C)C (configuration not stated)	4%	-9%	3%	x	x	9%	x	x
O=S(=O)(c1ccc(F)cc1)N1CCC(N2CCCC2)CC1	x	-3%	x	-3.5%	4%	4%	-4%	-10%
Cc1cccc(NC(=O)c2n[nH]c([N+](=O)[O-])c2Br)c1C	u	-70%	u	x	-4%	-10%	x	x
COc1ccc(CNC(=O)CNS(=O)(=O)c2ccc(Cl)cc2)cc1	u	-10%	2%	-1.2%	16%	1%	-3%	-2%
Cc1c(-c2ccccc2)[nH]n2c(=O)c3c(nc12)CCCC3	u	20%	2%	-1.0%	8%	1%	-26%	9%
Cc1ccc(C(=O)Cn2c(C(=O)OCCO)cc3ccccc32)cc1	u	-30%	u	x	-3%	10%	-1%	x
Cn1cccc1Cc1nnc(SCC(N)=O)n1-c1ccc(F)cc1	13%	1%	-1%	-0.1%	-13%	-1%	-1%	-6%
CC1CCN(S(=O)(=O)c2ccc(NC(=O)Cn3nnc(-c4ccccc4)n3)cc2)CC1	u	-28%	0%	1.3%	-1%	-2%	-8%	u
CN1CCN(S(=O)(=O)c2ccc(Sc3nc4ccccc4[nH]3)c3nsnc23)CC1	4%	-23%	-4%	0.0%	-2%	-3%	-11%	-2%
Cc1ccc(NC(=O)CS(=O)CC(=O)Nc2ccc3c(c2)OCO3)cc1Cl (configuration not stated)	-23%	46%[activator]	2%	-3.1%	-3%	-2%	2%	-25%
Cc1ccc(NC(=O)c2cccs2)cc1NC(=O)c1cccc(F)c1	x	-7%	x	x	9%	7%	12%	x
CCc1ccccc1N/C(=N\S(=O)(=O)c1ccccc1)C(F)(F)F	0%	-22%	16%	-1.6%	20%	1%	7%	2%
COc1ccccc1CNC(=O)C1CCN(C2=NS(=O)(=O)C(c3ccc(C)c(C)c3)=C2C)CC1	x	u	0%[46.1 µM]	-1.8%	x	x	x	3%
O=C(NC12CC3CC(CC(C3)C1)C2)c1ccc(Br)o1	2%[46.1 µM]	4%	u	x	2%	-30%	-10%	x
Cc1cccc(N2CCN(S(=O)(=O)c3cccc4nonc34)CC2)c1C	u	-22%	-2%	-2.8%	-27%	-6%	-5%	-20%
CCOC(=O)c1cnn(CCOC(=O)c2ccc(F)cc2)c1NC(=O)c1ccc(F)cc1	4%	-3%	2%	-1.1%	11%	1%	-3%	3%
COC(=O)CNC(=O)C1CCCN1C(=O)CNC(=O)OC(C)(C)C (configuration not stated)	0%	15%	4%	-4.5%	-2%	8%	4%	-2%
COc1ccc2c(c1)c1c(c(=O)n(-c3ccc(C)cc3)c(=O)n1CC(=O)NCc1ccc(C)cc1)n2C	x	-7%	-6%[46.1 µM]	-2.0%	x	x	x	-2%
COc1cc(C)c(C(=O)CC(=O)c2c(C)cc(OC)cc2C)c(C)c1	u	-10%	u	x	x	8%	x	x
N#Cc1ccccc1NC(=O)COc1ccc2c(c1)OCO2	13%[46.1 µM]	30%	18%[46.1 µM]	x	0%	-29%	-1%	x
CC(C)NC(=O)C1CCCN(S(=O)(=O)c2cccs2)C1 (configuration not stated)	25%	-9%	0%	5.2%	8%	8%	2.2µM*	-13%

Rows were taken by chance. About 4.7% of those tested had a hit in this group.
